Bioassay records (PubChem BioAssay)
hNpr1 antagonist: Natriuretic polypeptide receptor (hNpr1) antagonism - Primary qHTS; Atrial natriuretic peptide receptor 1 (Homo sapiens), P16066; HEK293 hNpr1 GloSensor cGMP, ANP-stimulated luminescence; Potency, µM (doses to about 46.3 µM), without a hit: at the top dose activity change, negative = inhibition, usual class: inhibitors; 1.6% of 76,000 active; AID 1347048, 2019; active = well fitted inhibition curve with a large enough effect; inconclusive = small, poorly fitted or top-dose-only effect; inactive = no such curve, though single readings can be large or run the other way;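 also: nearly all actives have a fitted effect of over 60% in size; nearly all hits also lower the signal before the agonist is added; a reference antagonist and vehicle were the controls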
Target sequence (P16066 whole entry, looked up): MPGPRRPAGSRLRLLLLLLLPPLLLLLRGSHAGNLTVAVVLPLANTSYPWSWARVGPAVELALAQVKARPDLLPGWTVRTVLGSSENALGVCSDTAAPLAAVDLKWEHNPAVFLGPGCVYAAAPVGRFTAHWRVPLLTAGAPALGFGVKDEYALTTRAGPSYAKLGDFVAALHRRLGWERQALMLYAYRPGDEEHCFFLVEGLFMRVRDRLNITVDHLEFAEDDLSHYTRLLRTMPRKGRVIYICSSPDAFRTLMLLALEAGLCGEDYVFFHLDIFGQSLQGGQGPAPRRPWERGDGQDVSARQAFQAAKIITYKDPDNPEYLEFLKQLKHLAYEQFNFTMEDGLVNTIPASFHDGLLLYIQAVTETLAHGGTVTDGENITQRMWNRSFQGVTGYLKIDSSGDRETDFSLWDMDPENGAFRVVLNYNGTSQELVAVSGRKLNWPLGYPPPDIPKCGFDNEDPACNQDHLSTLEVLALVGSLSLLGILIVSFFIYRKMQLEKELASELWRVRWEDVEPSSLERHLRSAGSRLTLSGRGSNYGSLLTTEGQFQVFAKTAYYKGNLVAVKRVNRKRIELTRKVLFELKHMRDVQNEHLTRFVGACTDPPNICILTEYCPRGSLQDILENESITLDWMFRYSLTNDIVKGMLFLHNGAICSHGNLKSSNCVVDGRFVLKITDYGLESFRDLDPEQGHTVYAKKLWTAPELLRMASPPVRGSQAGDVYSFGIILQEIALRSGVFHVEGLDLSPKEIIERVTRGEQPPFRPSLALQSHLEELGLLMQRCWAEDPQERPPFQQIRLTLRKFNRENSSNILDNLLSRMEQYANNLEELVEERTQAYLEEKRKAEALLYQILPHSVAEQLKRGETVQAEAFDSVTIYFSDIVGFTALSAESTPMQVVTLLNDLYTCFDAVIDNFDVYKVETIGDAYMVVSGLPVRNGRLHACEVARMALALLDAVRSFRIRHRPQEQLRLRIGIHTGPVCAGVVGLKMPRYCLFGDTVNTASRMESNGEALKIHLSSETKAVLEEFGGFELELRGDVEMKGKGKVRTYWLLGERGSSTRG
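HEK293 cells stably expressing human Npr1 and cGMP GloSensor pGS-40F, loaded 2 h with 2% GloSensor reagent, given compound 30 min at room temperature. Luminescence read before and 20 min after 0.1 nM hNppA.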
The depositor's hits bear a star; ? = inconclusive; [ ] = another dose, or the depositor's remark. % is scaled to controls: 0 for no effect and ±100 for the full control effect; potency is read from the fitted curve at half-maximal effect. An excerpt, so the mix of outcomes need not match the whole.

SMILES	hNpr1 antagonist
CCCc1nc(C(=O)NC(CC)c2ccc(S(C)(=O)=O)cc2)cs1 (configuration not stated)	-0.4%
O[C@@H]1C[C@@H](c2nc(-c3ccccc3)no2)N(Cc2ccc(F)cc2)C1	0.6%[70.6 µM]
COC1CCC12CCN(C(=O)c1nccn1C)CC2 (configuration not stated)	3.4%
CNC(=O)[C@@H](c1ccc(Cl)cc1)N1CCC[C@H]1C(=O)N(C)CCN(C)C	-1.9%
C[C@@H](NCC1CCCC1)c1onc(-c2ccc(Cl)cc2)c1C(=O)O	3.1%[70.6 µM]
Cc1cccc(CN2C[C@@H]3[C@H](C2)N(Cc2ccc(O)cc2)C(=O)C(C)(C)[S+]3(=O)[O-])c1	-18.5%[70.6 µM]
COCCN1CCCN(C(=O)C2CCCCC2)c2ccccc21	-1.3%
OCC1CN(C2CCC2)CC12CCN(Cc1ccc[nH]1)CC2 (configuration not stated)	-6.1%
COCCNC(=O)[C@@H]1CCC[C@@H](NCc2ccc(C(F)(F)F)cc2)CN(C)C(=O)C1	-1.8%[70.6 µM]
Cc1ccc(CN2CC[C@@H]3[C@H]2C(=O)NC[C@H](CCC(=O)N2CC[C@@H](O)C2)N3C)cc1	3.0%[70.6 µM]
CC1=C[C@@H](CNC(=O)c2ccco2)[C@H](C(C)C)C[C@H]1CC(=O)NCc1ccccn1	-6.7%[70.6 µM]
COCc1nc(CCNC(=O)C2CC(=O)N(c3ccc(F)c(Cl)c3)C2)no1 (configuration not stated)	-3.6%
CCOc1ccccc1C(=O)NCc1nnc2c(-c3nc(C4CC4)no3)cccn12	-10.0%
COc1ccc(CC(=O)Nc2ccc(=O)n3c2[C@@H]2C[C@@H](CN(C(=O)Nc4ccc(OC)cc4)C2)C3)cc1	-3.3%
CCC(=O)N1C[C@@H]2C(=O)N(C)C(=O)[C@@H]2C1	-1.3%
CCCN(C)C(=O)CC1COCCN1C(=O)Nc1cccc(SC)c1 (configuration not stated)	2.1%
O=C1CCN(C(=O)[C@H](Cc2ccccc2)NC(=O)c2ccoc2)CCCOCCN1	0.2%
COCC(=O)N[C@H]1C[C@@H](Cc2cc(-c3ccc(F)cc3)on2)C1(C)C	?
CCOc1cc(=O)n2c(c1C(=O)Nc1cccc(F)c1)CCCC2	4.7%
CCOc1ccc(C(=O)N2CCCC(c3noc(COc4ccccc4)n3)C2)cc1 (configuration not stated)	-4.9%
COc1ccc(CNC(=O)c2c(OC)cc(=O)n3c2CCCC3)c(OC)c1	-2.6%
Cc1ccc(CNC(=O)[C@H]2CCC[C@H]2NC(=O)c2ccncc2)cc1C	-9.5%
O=C(CCC1CCCC1)N1CCN(C(=O)N2CC3CC(C2)[C@H]2CCCC(=O)N2C3)CC1 (some centres not stated)	3.4%
CCC1CN(C(=O)c2cccc3c2OCC3)CCC(=O)N1Cc1ccccc1 (configuration not stated)	-0.9%
Cc1nc(C)c(C(=O)N2CCc3c(c(-c4nncn4-c4ccccc4)nn3C)C2)s1	3.2%
CN1CC2(CCN(C(=O)c3ccc(C#N)cc3)CC2)CC1C(=O)N1CCOCC1 (configuration not stated)	1.3%
COCC1CN(C)CC12CCN(C(=O)c1ccc(C)cc1C)CC2 (configuration not stated)	-8.4%
C=CCNC(=O)C(NC(=O)c1cccc(OC)c1)C1CCN(C(=O)c2ccccc2F)CC1 (configuration not stated)	-4.8%
NC1(C(=O)N2CCCC(CCc3ccccc3F)C2)CCC1 (configuration not stated)	1.6%
O=C(NCCN1CCCC1)C1CCN(c2cnn(CC3CC3)c(=O)c2)C1 (configuration not stated)	2.6%
O=C1CCN(C(=O)Nc2ccccc2)CCCC(c2nc(-c3cnccn3)no2)CCN1 (configuration not stated)	-2.5%
COC1CN(c2ccc(C)cc2)C12CCN(C(=O)c1ccncc1)CC2 (configuration not stated)	1.6%
COc1ccc(CCC(=O)N2CCC(Cc3nc(-c4ccc(F)cc4)no3)CC2)cc1	5.62µM*
CN(C)C(=O)N1CCCC(CCc2c(F)cccc2F)C1 (configuration not stated)	-2.4%
CCCN1C(=O)CC[C@H]2CN(C(=O)CCOc3ccccc3C)CC[C@H]21	1.7%
Cc1ccc(C(=O)NC2CCN(c3cc(-c4ccc(F)cc4)[nH]n3)CC2)cc1C	0.0%

Reprinted from the part before: 4 entries, followed by the next part.
SMILES	hNpr1 antagonist
COc1ccc(CCC(=O)N2CCC(Cc3nc(-c4ccc(F)cc4)no3)CC2)cc1	5.62µM*
CN(C)C(=O)N1CCCC(CCc2c(F)cccc2F)C1 (configuration not stated)	-2.4%
CCCN1C(=O)CC[C@H]2CN(C(=O)CCOc3ccccc3C)CC[C@H]21	1.7%
Cc1ccc(C(=O)NC2CCN(c3cc(-c4ccc(F)cc4)[nH]n3)CC2)cc1C	0.0%
COCCNC(=O)CCCN1C(=O)COc2ccc(C(=O)COc3ccccc3F)cc21	6.5%
Cc1ccc(-c2nnc(C3CN(C(=O)CCC4CCCC4)CC34CCOCC4)o2)cc1 (configuration not stated)	-0.9%
COC(=O)CNC(=O)C1c2ccccc2C(=O)N(Cc2ccccc2)C12CCCC2 (configuration not stated)	0.8%
CC(=O)Nc1ccc(C2(C(=O)NCc3ccccc3F)CCC2)cc1	-0.3%
COCCn1c(CO)nnc1C1CC(NC(=O)C2(C)CCCC2)C1 (configuration not stated)	-8.5%
CCOc1cc(-c2noc(-c3nnn4c3COC(c3ccc(F)cc3)C4)n2)ccc1OC (configuration not stated)	-8.9%
O=C1NCC2(CCN(C(=O)c3ccccc3)CC2)Oc2ccccc21	3.1%[70.6 µM]
Cc1noc([C@@H]2CN(C(=O)c3ccc(Br)o3)C[C@H]2CO)n1	1.0%
CCOc1ccc(NC(=O)c2cc3c(N4CCSCC4)nc(C)cn3n2)cc1	7.6%
O=C(Cn1nc2c(cc1=O)CCCC2)Nc1nc(-c2ccc3c(c2)OCCCO3)cs1	3.5%
COc1ccc2c(c1)CN(Cc1ccccc1)CC[C@H]1COC(=O)N21	-10.8%[70.6 µM]
Cc1[nH]ncc1CNC(=O)C1CCN(c2cnn(CC3CC3)c(=O)c2)C1 (configuration not stated)	4.1%
O[C@@H]1C[C@@H](c2nc(Cc3ccc(F)cc3Cl)no2)N(Cc2ccc(OC(F)(F)F)cc2)C1	-12.2%
CN1C(=O)C(CC(=O)NCCc2nc(-c3cccnc3)n[nH]2)N(C)C1=O (configuration not stated)	1.8%
O=C(NCC1CN(C(=O)Cc2cccc(OC(F)(F)F)c2)CC12CN(c1ccccc1)C2)c1ccccc1 (configuration not stated)	-0.5%
Cn1cc(CCCNS(=O)(=O)c2cccc(C(=O)N3CCCC3)c2)cn1	-5.8%
O=C(NCc1cc2ccc(F)cc2[nH]c1=O)C1CC2(CCNCC2)CN1 (configuration not stated)	9.1%
COCC1CN(C(C)=O)CC12CCN(C(=O)COc1cccc(C)c1)CC2 (configuration not stated)	5.5%
CN(C)c1nc2c(c(=O)[nH]1)CCN(Cc1cc(F)cc(F)c1)CC2	2.3%
O=C(Nc1cccc2ccccc12)O[C@@H]1CO[C@H]2[C@@H]1OC[C@@H]2n1nnnc1-c1ccc(-c2ccccc2)cc1	-1.3%
CCC(=O)NCc1cccnc1Oc1ccccc1OC	2.6%
COc1ccc(C(=O)N2CCN(c3cc(-c4cccs4)[nH]n3)CC2)cc1OC	?
CCn1nccc1C(=O)NCCC1CCN(C(=O)Nc2cc(F)ccc2F)CC1	4.8%
CCOc1cccc(CNC(=O)c2cc3n(n2)CC(c2ccc4c(c2)OCO4)OC3)c1 (configuration not stated)	-22.6%
COc1ccc(C(=O)N2CCC3(CC2)NC(=O)N(c2ccccc2)N3)cc1	-1.7%
CNC(=O)c1ccc2c(c1)NC(C)(CNc1ccccc1)CO2 (configuration not stated)	-4.0%[70.6 µM]
O=C(c1ccccn1)N1CC(Oc2ccc(-c3noc(C4CC4)n3)cc2)C1	14.1µM*
CC(C)CCN1CCC(N2CCN(S(=O)(=O)c3ccc4c(c3)CCCC4)CC2)C1=O (configuration not stated)	?
O=C(NCc1cccnc1)c1ccc2c(c1)n(Cc1ccc(F)cc1)c(=O)c1ccnn12	-4.7%
Cc1ccc2nc(CO[C@H]3CN(Cc4nccs4)C[C@H]3F)[nH]c2c1	-14.5%[70.6 µM]
O=C(O)c1ccc(CN2CC(COc3ccccc3)C3(C2)CN(c2ccccc2)C3)cc1 (configuration not stated)	-21.6%[70.6 µM]
c1ccc(Nc2cc3c(cn2)CN(Cc2ccn[nH]2)CCN3)cc1	-20.8%[70.6 µM]
CN1c2cc(C(=O)NCc3ccc(Cl)cc3)ccc2C(=O)N2CCCCC21 (configuration not stated)	-12.6%
CC(C)N1C(=O)CO[C@H](c2ccc(NS(=O)(=O)Cc3ccccc3)cc2)[C@H]1CO	-4.5%[70.6 µM]
CCC1(N2CCN(C(=O)c3cccc(C(F)(F)F)c3)CC2)CCN(S(C)(=O)=O)C1 (configuration not stated)	-1.1%
Cc1ccc2c(C(=O)Nc3ccc(F)cc3)cnn2c1	-2.5%[70.6 µM]

Compounds above that have a COOH group:
SMILES	hNpr1 antagonist
C[C@@H](NCC1CCCC1)c1onc(-c2ccc(Cl)cc2)c1C(=O)O	3.1%[70.6 µM]
O=C(O)c1ccc(CN2CC(COc3ccccc3)C3(C2)CN(c2ccccc2)C3)cc1 (configuration not stated)	-21.6%[70.6 µM]

(cont.)
SMILES	hNpr1 antagonist
O=C(NC1CC1)C1CCN(C(=O)c2ncn3c2COC(c2ccc(F)cc2)C3)CC1 (configuration not stated)	2.7%
Cc1noc(-c2cccc(OC3CN(C(=O)Cc4ccccc4)C3)c2)n1	-25.4%
CCC(=O)N1CCCCCCN(C)C(=O)[C@@H]2CCC[C@@H]21	-6.5%
CCOc1ccc(C(=O)NC2CCN(c3cc(-c4ccc(F)cc4)[nH]n3)CC2)cc1OCC	2.5%
O=C(Nc1ccccc1Cl)N1CCC(Oc2ncccc2C(=O)N2CCOCC2)C1 (configuration not stated)	0.3%
COC1CCC(C(=O)N2CCCn3nc(C)c(-c4ccccc4Oc4ccccc4)c32)CC1 (configuration not stated)	-9.5%
O=C1NCCCCCCN(C(=O)c2ccccn2)[C@H]2CCCC[C@@H]12	-7.3%
COc1ccc(OC)c(S(=O)(=O)N2CCCCCCNC(=O)[C@@H]3CCCC[C@@H]32)c1	-3.6%
COC(=O)[C@@H]1Cc2ncn(Cc3ccccc3)c2CN1C(=O)c1ccc(OC)cc1	-1.7%[70.6 µM]
CN1C(=O)C(CC(=O)NCC2CCN(Cc3cccc(F)c3)CC2)=C2CCCCC21 (configuration not stated)	-14.2%
O=C(NCC1CC1)c1ccc(CN2C(=O)NC3(CCS(=O)(=O)CC3)C2=O)cc1	-0.4%
Cc1ccccc1C(=O)N1CCC(C(NC(=O)c2cccs2)C(=O)N2CCCCC2)CC1 (configuration not stated)	-2.8%
COC1CN(c2cccc(F)c2)C12CCN(CC1CCCCC1)CC2 (configuration not stated)	3.4%
Cc1noc([C@@H]2CN(S(=O)(=O)c3ccc(Cl)s3)C[C@H]2C(N)=O)n1	4.3%
Cc1cccc(C)c1NC(=O)Cn1nc2n(c1=O)CCCCC2	1.0%
CN(C)C(=O)C1CN(C(=O)c2ccccc2Cl)CC12CCOCC2 (configuration not stated)	-0.1%
CCc1noc(-c2cn(C3CCN(C(=O)COc4ccccc4)CC3)nn2)n1	0.0%
S=C(Nc1ccccc1)N[C@H]1CO[C@H]2[C@@H]1OC[C@H]2OCc1ccccc1	-19.1%[70.6 µM]
COc1cccc([S+](=O)([O-])N2CCC3(CC(C)=NO3)C2)c1 (configuration not stated)	0.0%[70.6 µM]
O=C(c1ccc(=O)[nH]n1)N1CCc2ncnc(N3CCOCC3)c2CC1	-1.2%
NCCn1cc(C(=O)N2CCC(c3n[nH]c(=O)n3-c3ccccc3)CC2)nn1	0.0%
CC(C)CC(=O)N1CCCN(Cc2ccc3c(c2)OCO3)c2ccccc21	-0.2%
CC(=O)Nc1ccccc1-c1cn(C)c(=O)n2cc(COc3ccc(Cl)cc3)nc12	-4.5%[70.6 µM]
C=CCNC(=O)C[C@@H]1CCN(S(=O)(=O)c2c(C)noc2C)C[C@@H]1CC	4.9%[70.6 µM]

3 records drawn at random from those above:
SMILES	hNpr1 antagonist
S=C(Nc1ccccc1)N[C@H]1CO[C@H]2[C@@H]1OC[C@H]2OCc1ccccc1	-19.1%[70.6 µM]
CCc1noc(-c2cn(C3CCN(C(=O)COc4ccccc4)CC3)nn2)n1	0.0%
NCCn1cc(C(=O)N2CCC(c3n[nH]c(=O)n3-c3ccccc3)CC2)nn1	0.0%

Following part
SMILES	hNpr1 antagonist
O=C(NCc1cccc(C(F)(F)F)c1)c1ccc(N2CC3CC(C2)[C@H]2CCCC(=O)N2C3)nc1 (some centres not stated)	0.5%
CC(C)S(=O)(=O)NCC1Cn2cccc2CN1Cc1ccccc1 (configuration not stated)	-0.4%
COc1ccc2c(c1)c(CN1CCCC(c3nc(C(C)C)no3)CCNC(=O)CC1)cn2C(C)C (configuration not stated)	-20.2%
CC(C)c1noc(-c2ccn3c(CNC(=O)c4cccc(N(C)C)c4)nnc3c2)n1	-8.9%
Cc1nc(-c2c3n(c(=O)n(CC(=O)Nc4ccc(F)cc4F)c2=O)CCCC3)no1	0.0%
N#Cc1cccc(CN2CC(COc3ccccc3)C3(C2)CN(c2ccccc2)C3)c1 (configuration not stated)	-19.4%[70.6 µM]
COc1cccc(-c2nc(-c3c(C)noc3C)cc3c2cc(C)n3C)c1OC	2.5%[70.6 µM]
O=C(NCCCc1nc2ccc(Cl)cc2[nH]1)[C@H]1CCC[C@@H](O)C1	5.2%
Cc1cccc(NC(=O)CN2C(=O)NC3(CCS(=O)(=O)CC3)C2=O)c1	-12.3%
